ALR H2O2 inh = inhibitors of human ALR sulfhydryl oxidase, primary screen, biochemical, H2O2 detection, HRP-luminol luminescence, single point; inhibition, % (test concentration not listed); FAD-linked sulfhydryl oxidase ALR (Homo sapiens), P55789; purified ALR, DTT oxidation; 290,000 compounds, 3.8% hits;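 active = mean and each replicate at 75% or more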;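 also: stock transfer was 7.5 nL into about 7.5 µL; 0% = neutral wells and 100% = wells with inactivated enzyme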
Target sequence (P55789 whole entry, looked up): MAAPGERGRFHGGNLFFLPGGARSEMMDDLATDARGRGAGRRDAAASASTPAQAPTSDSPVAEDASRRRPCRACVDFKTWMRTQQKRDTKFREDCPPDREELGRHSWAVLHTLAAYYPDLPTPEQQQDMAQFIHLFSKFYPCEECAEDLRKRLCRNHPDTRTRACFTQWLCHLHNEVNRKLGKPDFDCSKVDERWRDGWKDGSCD
UCH37 DUB inh = inhibitors of human UCH37 deubiquitinase, primary screen, biochemical, Ub-AMC cleavage, fluorescence. Ubiquitin carboxyl-terminal hydrolase isozyme L5 (Homo sapiens), Q9Y5K5. purified proteasome/UCH37. inhibition, % (no concentration beside the values). 330,000 compounds, 0.33% hits. AID 588478, 2011;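 active = mean of two replicates above 20%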;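 also: 0% = compound-free wells with enzyme and 100% = wells lacking proteasome; stock transfer was 100 nL into about 20 µL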
Target sequence (Q9Y5K5 whole entry, looked up): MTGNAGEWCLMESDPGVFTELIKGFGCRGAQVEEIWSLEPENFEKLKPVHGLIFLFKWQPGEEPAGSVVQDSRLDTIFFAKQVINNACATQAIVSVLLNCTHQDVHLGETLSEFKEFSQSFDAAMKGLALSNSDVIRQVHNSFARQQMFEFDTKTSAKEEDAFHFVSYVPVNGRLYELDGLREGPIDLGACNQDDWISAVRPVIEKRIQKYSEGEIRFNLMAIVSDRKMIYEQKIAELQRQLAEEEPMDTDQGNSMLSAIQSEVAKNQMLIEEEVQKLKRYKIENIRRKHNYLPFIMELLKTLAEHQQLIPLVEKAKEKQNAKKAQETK
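Signal – fluorescence, ex 355 nm, em 460 nm · System – Proteasome-bound UCH37 · Input – 0.15 nM proteasome as dispensed · Timing – 30 min preincubation with enzyme, 25 min cleavage at room temperature · Read-out basis – percent inhibition of cleavage signal versus uninhibited and no-proteasome wells · Medium – Tris-HCl pH 7.4 with ATP-MgCl2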
LANA-H2B inh = blockers of LANA interaction with H2A/H2B – biochemical, FP readout, HTS, primary screen; 320,000 compounds, 0.6% hits; inhibition, % (test concentration not listed); AID 2629, 2010; cell-free LANA-H2A/H2B peptide, fluorescence polarization; Protein LANA1 (Human herpesvirus 8 type P (isolate GK18)), Q9QR71; in the data active = inhibition mostly above about 10%, no sharp cut-off; inactive = mostly below about 6.7%;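 also: stock transfer was 7.5 nL into about 10 µL; 0% = median of vehicle wells and 100% = median of positive control wells; one replicate is shown; the record names a cut of 25% in any replicate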
Ecoli growth = E. coli growth inhibition, primary screen, OD600. Escherichia coli growth, 23 h; stronger effect = lower value. OD600 absorbance (concentration not given with the values). 330,000 compounds, 0.21% hits. AID 1053175, 2014;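 active = OD600 absorbance below the run mean of sample wells minus 3.6 SD, in any replicate, cut at about 0.56 in these data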;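 also: stock transfer was 300 nL into about 60 µL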
B2AR ag = beta2AR agonists driving receptor internalization, primary screen, cell-based, FAP fluorogen, flow cytometry. response, % (test concentration not listed). Am2.2-beta2AR cells; reference of the scale not given here. 340,000 compounds, 0.43% hits;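 active = response above a set limit, near 3 SD of response in nonfluorescent compounds, cut at about 42% in these data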;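 also: stock transfer was 100 nL into about 11 µL; a reference agonist was the positive control; negative values mostly stem from fluorescent compounds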
HNF4A DNA FP = change in binding of human HNF4A to DNA, primary screen, biochemical, fluorescence polarization, FITC-DNA; 1 h; activity change, % at 10 µM; 360,000 compounds, 0.3% hits; in the data active = activity change above about 30%, passing the limit was not always enough;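 also: controls were the assay level and a saturating level of protein; the project sought stronger binding though the title names inhibitors; some compounds called inactive have numbers as strong as hits; positive values seem to mean higher polarization but the record does not say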
FGF22 binding = binders of human FGF22 protein, primary screen, FGF22 synaptogenesis inhibitor project, biophysical, thermal shift, single point; recombinant FGF22 thermal shift, SYPRO orange fluorescence; percent of sucrose octasulfate shift, DMSO zero; calls only at 9.99 µM; 340,000 compounds, 1.5% hits;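 active = melting point raised past a set limit in the mean and every replicate; three in four hits are not shown here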
Target sequence (Q9HCT0 whole entry, looked up): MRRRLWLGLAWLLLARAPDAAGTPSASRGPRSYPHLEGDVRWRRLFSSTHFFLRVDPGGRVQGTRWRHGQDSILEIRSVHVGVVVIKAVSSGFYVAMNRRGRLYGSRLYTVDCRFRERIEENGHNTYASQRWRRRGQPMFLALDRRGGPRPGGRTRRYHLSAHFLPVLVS
* marks the source's active call; other numbers are inactive results; i = inactive; x = not tested or not shown; & = joins results of further samples.

SMILES	ALR H2O2 inh	UCH37 DUB inh	LANA-H2B inh	Ecoli growth	B2AR ag	HNF4A DNA FP	FGF22 binding
O=S(=O)(c1ccccc1)N1CCN2CCCC2C1 (stereo not given)	-14.5	0.3	5.9	0.657	-7.8	0.0	i
CN(C)C1=NC(N(C)C)=NP(N(C)C)(N(C)C)=N1	0.6	4.0	-4.3	0.729	-1.8	2.8	x
C[C@H]1CCC/C=C/C2C[C@H](O)CC2[C@H](O)/C=C/C(=O)O1 (stereo not given in full)	-1.1	x	-7.2	x	36.3	2.8	x
COc1ccc(C(CC(=O)N2CCC3(CC2)OCCO3)NS(=O)(=O)c2ccc(F)cc2)cc1 (stereo not given)	x	3.5	x	0.766	10.0	2.5	x
CCn1c(O)c(C=Nc2ccc(S(N)(=O)=O)cc2)c(=O)n(CC)c1=S	x	8.0	1.9	0.706	-4.0	6.4	i
CCOc1ccc(NC(=O)c2c(C)nn(Cc3ccccc3)c2Cl)cc1	-1.9	-0.7	4.0	0.684	-0.5	1.0	x
CCOP(=S)(OCC)c1ccc(N(C)C)cc1	2.6	4.0	3.1	0.74	0.4	0.8	x
COC(=O)C1C(O)CC2CCC1N2C (stereo not given)	x	3.2	x	0.737	-4.4	0.5	i
COc1ccc(OC)c(C(c2c(O)c3ccccc3oc2=O)c2c(C)n(C)n(-c3ccccc3)c2=O)c1 (stereo not given)	-1.7	0.7	0.7	0.704	-0.8	-0.6	i
C=C(C)Cn1c(=O)n(CC2CS2)c2ccccc21 (stereo not given)	-4.0	3.3	1.5	0.667	21.6	-0.3	x
Cc1cc(OCC(=O)N2C[C@H]3C[C@@H](C2)c2cccc(=O)n2C3)c2c(C)cc(=O)oc2c1	-8.7	-23.3	-2.7	0.643	4.1	3.8	i
CN1CCN(Cc2c(F)cccc2Cl)CC1	0.5	3.7	-0.4	0.678	9.0	1.8	i
CCN1CC=C(c2c[nH]c3ccccc23)CC1	4.7	-3.5	0.1	0.743	-3.0	1.0	x
O=C(Cn1ncc2ccsc2c1=O)N1CCC2(CC1)OCCO2	-6.1	-0.6	-0.8	0.707	0.4	-0.7	i
CC1(O)C[C@]2(C)N(O)C3CCCC[C@@H]3N2O1 (stereo not given in full)	-5.1	0.9	-0.3	x	2.4	-2.3	x
Cc1cc(N(CCCl)CCCl)ccc1C=NNC(=O)c1cccnc1	x	3.7	x	0.67	26.3	-1.9	i
O=C1NC(=O)N(c2ccc(Cl)cc2)C(=O)/C1=C/c1coc2ccc(O)cc2c1=O	41.0	4.6	-3.8	0.645	3.8	1.1	i
O=P(O)(O)C12CC3CC(CC(C3)C1)C2	0.7	-2.1	-2.3	0.707	-0.9	0.9	x
CCCn1ncc(C(=O)O)c1C	-1.9	1.2	-0.3	0.759	-7.9	2.9	x
CCOC(=O)c1c(C)c(C(=O)N2CCC3(CC2)OCCO3)c(C)n1CC	-18.5	1.2	1.4	0.685	-2.4	-2.6	x
Cc1c(C=C2C(=O)N(C)C(=O)N(C)C2=O)c(=O)n(-c2ccccc2)n1C	x	5.9	1.9	0.676	7.2	2.3	i
CCOC(=O)[C@@]12C(=O)C(=O)N[C@]1(c1ccccc1)C1OCCCC12 (stereo not given in full)	-1.3	1.8	1.5	0.692	-0.4	1.0	i
CCC1(C)CN(S(=O)(=O)OCC(Cl)(Cl)Cl)C(=O)N1 (stereo not given)	0.9	1.9	6.4	0.698	-2.5	3.2	i
CC(=O)NC(Cc1ccc(N(CCCl)CCCl)cc1)C(=O)NC(C(=O)O)C(C)C (stereo not given)	1.7	-0.3	-1.9	0.666	-5.3	4.6	i
CCC(COC(=O)c1cc(OC)c(OC)c(OC)c1)(c1ccccc1)N(C)C (stereo not given)	-2.0	1.7&0.3&0.2	-7.8&-2.3&-8.0	0.695&0.714&0.717	12.4&-2.4	5.2&6.3	i

The list continues:
SMILES	ALR H2O2 inh	UCH37 DUB inh	LANA-H2B inh	Ecoli growth	B2AR ag	HNF4A DNA FP	FGF22 binding
O=CNc1ccc(OP(=O)(Oc2ccccc2)Oc2ccccc2)cc1	x	2.0	3.5	0.651	-2.9	-6.0	i
O=C(CCC(=O)N1CC2C[C@@H](C1)Cn1c2cccc1=O)NCCc1ccccc1F	-3.7	5.6	-0.1	0.76	21.4	0.9	i
O=C1NC(=S)NC(=O)C1Cc1ccccc1O	x	x	x	x	-12.4	-1.6	i
CC(CCN1CC1)=NNC(=O)Nc1cccc2ccccc12	x	x	x	x	-5.5	2.6	i
COP(=S)(OC)Oc1ccc(SC)c(C)c1	x	4.2	x	0.708	4.8	3.0	i
CCOC(=O)C1CCN(/C=C2/C(=O)NC(=O)N(c3cccc(C)c3C)C2=O)CC1	0.8	4.0	-4.7	0.724	-1.3	2.2	i
CCOC(=O)C(O)(c1ccc(N(C)C(=O)c2ccc(Cl)c(Cl)c2)cc1)C(F)(F)F (stereo not given)	-15.5	0.0	-1.9	0.689	1.1	-1.6	x
CC(C)OP(=O)(OC(C)C)C(NCc1ccccc1)c1ccccc1 (stereo not given)	-8.4	2.6	-1.0	0.678	-3.0	-2.4	i
CCN1CCN(C(=O)COc2ccc(S(=O)(=O)NC(C)C)cc2)CC1	x	3.2	-3.0	0.681	0.5	-1.5	i
C=CCn1c(=O)c(C=Nc2c(OC)cccc2[N+](=O)[O-])c(O)n(CCCC)c1=O	-27.5	5.8	-2.0	0.686	-4.7	21.3	x
COC(=O)C1=COC(C)C2CN3CCC4(C(=O)Nc5ccccc54)C3CC12 (stereo not given)	-29.3	-0.1	-5.2	0.74	3.2	7.4	i
CCn1c(O)c(/C=N/NC(=O)c2ccccc2)c(=O)n(CC)c1=S	69.0	-31.5	-0.5	0.608	2.7	2.2	i
COC(=O)C1=C(c2ccccc2)C[C@@H]2CC[C@H]1N2C(=O)NCc1ccc(C(F)(F)F)cc1	-0.2	5.0	-5.8	x	1.1	0.1	i
C=CCN1CCC2(C)c3cc(O)ccc3CC1C2C (stereo not given)	10.1	4.5	2.2	0.717	-0.7	3.6	i
O=C(Cc1ccccc1)N1CCN(Cc2cccnc2)CC1	0.5	0.3	-1.2	0.685	3.5	-0.6	x
CCOP(=S)(OCC)SCSP(=S)(OCC)OCC	x	4.9	x	0.746	-3.7	1.6	i
COC(=O)C1C2c3ccccc3OC1(C)N=c1s/c(=C/c3cn(C)nc3C)c(=O)n12 (stereo not given)	-2.8	x	1.8	x	-8.4	0.1	x
CC(=O)N1N=C2C3CCN(CC3)C2C1c1ccc(Br)cc1 (stereo not given)	-21.8	-1.9	-0.4	0.696	-12.2	-3.8	i
O=C(CN1CC=C(c2ccccc2)CC1)Nc1c(Cl)cccc1Cl	-6.2	-0.7	3.3	0.689	6.7	4.5	x
O=[N+]([O-])c1ccc2c(c1)C(c1ccccc1)=NCCN2	-6.2	4.4	-4.7	0.619	-6.4	-0.1	i
Cc1ccc(N(C)C(=O)Oc2ccc(C(=O)c3ccc(Cl)cc3)cc2)cc1	31.6	0.0	-3.9	0.769	2.3	2.2	x
N#CCCn1cc(C(=O)Nc2ccccc2Br)c(-c2ccc3c(c2)OCCO3)n1	10.8	0.5	-8.9	0.662	-4.4	1.0	x
O=C(Nc1ccccc1F)OC1CN2CCC1CC2 (stereo not given)	-5.7	4.2	3.2	0.699	0.0	3.0	i
Clc1cccc(N2CCNCC2)c1	x	1.4	0.7	0.669	-3.9	1.4	i
COc1ccc(OC)c(-n2c(O)c(C=NCc3ccc4c(c3)OCO4)c(=O)[nH]c2=O)c1	-1.5	2.0	4.2	0.661	5.8	1.0	x

The list goes on.
SMILES	ALR H2O2 inh	UCH37 DUB inh	LANA-H2B inh	Ecoli growth	B2AR ag	HNF4A DNA FP	FGF22 binding
O=C1NC(=O)N(CCC2=CCCCC2)C(=O)/C1=C/c1cccs1	32.0	3.0	2.8	0.614	26.2	-4.6	i
CC(C)CN1CCN(Cc2ccc(F)cc2Cl)CC1CCO (stereo not given)	-3.1	2.0	2.7	0.693	7.0	1.7	i
CC(=O)O[C@H]1[C@H]2O[C@]23[C@@H]2CC[C@]4(O)C[C@@H](O)CC[C@]4(C)C2CC[C@]3(C)[C@H]1c1ccc(=O)oc1 (stereo not given in full)	0.5	-2.0	-3.0	x	4.8	-0.6	x
Cc1c(N)c(C)c([N+](=O)[O-])c(C)c1[N+](=O)[O-]	x	-1.5	-36.9	0.629	-4.5	-1.4	i
CCOC(=O)[C@]12Cc3cc4c(cc3[C@H]1N(Cc1ccccc1)C(=O)c1ccccc12)OCO4	x	1.0	x	x	9.9	-1.8	i
Cc1cc(NC(=O)C(Cl)(Cl)Cl)no1	-6.9	3.4	-4.1	0.659	-6.0	0.9	i
CCC12CN3CCN(CC(C3)/C1=N/NC(N)=O)C2	-6.9	x	1.8	x	5.0	-3.4	i
O=[N+]([O-])c1ccc(NCCCN2CCOCC2)c2ncccc12	-23.4	12.1	-5.0	0.673	-1.4	1.8	i
COCCNC(=O)c1c(N)n(Cc2ccco2)c2nc3ccccc3nc12	10.1	i	-7.2	0.7	-4.8	2.3	x
Cc1ccccc1CS(=O)(=O)Cc1ccc(C(=O)N2CCC3(CC2)OCCO3)o1	-0.3	-0.3	2.2	0.718	3.1	-1.0	i
COc1cccc(C(=O)C2CCCN(Cc3cnn(C(C)C)c3)C2)c1 (stereo not given)	2.1	-1.0	-1.1	0.673	4.9	0.5	i
O=c1[nH]c(=S)n(-c2ccc(Cl)cc2)c(O)c1/C=N/N1CCOCC1	25.3	11.3	5.5	0.603	6.3	2.5	i
O=c1cccc2n1CC1CC2CN(Cc2c(Cl)cccc2Cl)C1 (stereo not given)	1.7	5.9	-1.8	0.668	7.1	-0.5	x
CC(C)c1ccc(NC(=O)CSc2nnc(OC(=O)N(C)C)n2C2CC2)cc1	5.2	4.4	1.2	0.743	-5.2	2.4	i
CCOC(=O)Cn1cc(C(=O)c2ccccc2F)c2ccccc21	x	3.4	-2.4	0.674	6.6	2.2	x
O=C(CCC(=O)N1C[C@H]2C[C@@H](C1)c1cccc(=O)n1C2)NCc1cccc(C(F)(F)F)c1	-4.9	-2.1	1.7	0.708	3.4	9.0	i
O=C(CCN1CCCCC1)Nc1ccc(Br)cc1C(=O)c1ccccc1	0.9	0.9	18.9*	0.66	-3.3	2.9	i
COc1ccc(NC(=O)c2cn(CCC#N)nc2-c2ccc([N+](=O)[O-])cc2)cc1	-19.9	1.2	1.4	0.704	-9.1	6.9	i
CC1(C)C2([N+](=O)[O-])CN3CN(C2)CC1([N+](=O)[O-])C3	-0.2	0.4	-1.4	0.678	1.2	-0.9	i
C=CCC1(CN2CCCCCC2=O)C(=O)NC(=O)NC1=O	-2.3	-1.3	5.8	0.749	-0.4	0.2	x
COc1ccc(C)cc1NC(=O)N1CCC2(CC1)OCCO2	-3.8	3.9	-0.1	0.698	-1.6	6.7	i
O=C(Nc1cccc(Br)c1)c1c(O)c2c(n(Cc3ccccc3)c1=O)CCCC2	-25.9	3.6	-3.9	0.627	-5.3	0.0	i
O=C(Cc1ccccc1)N1CCN(Cc2cccc(Cl)c2)CC1	-16.5	3.8	4.1	0.641	3.1	-2.8	i
N=c1sccn1Cc1ccccc1F	-2.1	2.4	3.3	0.678	2.3	-2.0	i
CC(=Nc1ccccc1N)c1c(O)n(C)c(=O)n(C)c1=O	x	3.4	-0.7	0.703	14.6	0.4	i

Among those listed so far, these contain a COOH group:
SMILES	ALR H2O2 inh	UCH37 DUB inh	LANA-H2B inh	Ecoli growth	B2AR ag	HNF4A DNA FP	FGF22 binding
CCCn1ncc(C(=O)O)c1C	-1.9	1.2	-0.3	0.759	-7.9	2.9	x
CC(=O)NC(Cc1ccc(N(CCCl)CCCl)cc1)C(=O)NC(C(=O)O)C(C)C (stereo not given)	1.7	-0.3	-1.9	0.666	-5.3	4.6	i

An excerpt (hit frequency here may not be typical).
